Bioassay records: PubChem, National Center for Advancing Translational Sciences (NCATS)
Vaccinia mCherry – inhibitors of vaccinia virus infection (mCherry reporter signal) | Vaccinia virus mCherry reporter infection, fluorescence; about a quarter of the inactives have no number | Potency, µM (titrated, usually from 36.5 µM), for the others: at the highest dose activity change, negative = inhibition, most hits filed as inhibitors | hit rate 0.63% among 310,000 | AID 720579; active = well fitted inhibition curve with a large enough effect; inconclusive = small, poorly fitted or top-dose-only effect; inactive = no such curve, though single readings can be large or run the other way; tested in A549 cells; note: nearly all actives have a fitted effect of over 35% in size; inactives centre near -10
Vaccinia Venus – vaccinia inhibition (Venus reporter) | hit rate 0.46% among 330,000 | Vaccinia virus Venus reporter expression, fluorescence | Potency, µM (series often up to 36.5 µM), without a hit: at the highest dose activity change, negative = inhibition, most hits filed as inhibitors | AID 720580; active means well fitted inhibition curve with a large enough effect; inconclusive means small, poorly fitted or top-dose-only effect; inactive means no such curve, though single readings can be large or run the other way; tested in A549 cells; note: nearly all actives have a fitted effect of over 30% in size; inactives centre near -10
* marks the source's active call; other numbers are inactive results; i = inactive; ? = inconclusive; . = no result given; & = joins results of further samples; [ ] = remark or other dose. % is set by controls: 0 for no effect and ±100 for the full control effect; potency is the fitted concentration of half-maximal effect.

The first 2 compounds, to show the layout:
Second line of a record: Vaccinia mCherry, Vaccinia Venus
COc1ccccc1NS(=O)(=O)c1ccc(NN=C2CCCCC2)c([N+](=O)[O-])c1
    -12%, -16%
CCOC(=O)c1c(NC(=O)c2cc3ccccc3c(=O)o2)sc2c1CCCC2
    6%, 1%

Results, repeating the preview:
Second line of a record: Vaccinia mCherry, Vaccinia Venus
COc1ccccc1NS(=O)(=O)c1ccc(NN=C2CCCCC2)c([N+](=O)[O-])c1
    -12%, -16%
CCOC(=O)c1c(NC(=O)c2cc3ccccc3c(=O)o2)sc2c1CCCC2
    6%, 1%
CCn1cc(CNC(=O)c2ccc(C)s2)cn1
    -12%, -23%
CC(C)c1cccc(C(C)C)c1NC(=O)CN1CCCC1
    -28%, 2%
COc1ccc(C(=O)N2CCOC2CNC(=O)C(=O)NCc2ccc(C)cc2)cc1 (configuration not stated)
    -13%, -23%
Nc1nc(-c2ccco2)nn1C(=O)c1ccc(Cl)cc1
    ., -4%
CCOC(=O)C1(CC2CCCCO2)CCN(S(=O)(=O)c2cc(C)cs2)CC1 (configuration not stated)
    0%, -18%
CCN1CCN(Cc2cc(=O)oc3ccc(C)cc23)CC1
    25%, 5%
CCOCCCN(C(=O)Cn1nnc(-c2ccc(C)o2)n1)C(C(=O)NCC1CCCO1)c1ccc(F)cc1 (configuration not stated)
    i, 6%
CC(C)(C)NC(=O)CN(C(=O)c1snc(C(=O)NC2CCCCC2)c1N)c1ccc(F)cc1
    -9%, -14%
O=C(C(=O)N1CCCC1CO)N1CCCC1CO (configuration not stated)
    i, -5%
Cc1cc(C)cc(CC(Cc2nc3ccccc3[nH]2)c2nc3ccccc3[nH]2)c1 (configuration not stated)
    -14%[1.46 µM], 14µM*
O=C(CCCCl)Nc1nc(-c2ccc3c(c2)OCCO3)cs1
    ?, -29%
CC1CCCC(C)N1C(=O)CSc1nc2ncnc(N)c2[nH]1 (configuration not stated)
    -14%, -6%
C[C@H](CO)N1C[C@H](C)[C@@H](CN(C)Cc2ccc(Oc3ccccc3)cc2)Oc2cc(Br)ccc2S1(=O)=O
    -11%, -28%
Cc1cccc(S(=O)(=O)N(CC(=O)Nc2ccccc2C)Cc2ccco2)c1
    ., -25%
CCC(C)NC(=O)c1ccc(CSCc2ccc(Cl)cc2)o1 (configuration not stated)
    i, -7%
Cc1c(CCC(=O)O)c(=O)oc2cc3occ(-c4ccccc4)c3cc12
    -1%, -4%
FC(F)(F)c1ccccc1NC(=S)N1CCN(c2ncccn2)CC1
    -17%[1.46 µM], ?
CCOc1ccccc1C(=O)Oc1c(Sc2ccccc2)c(C)nn1C(C)(C)C
    -22%, -14%
O=C(c1ccnc(Cl)c1)N1CCCC(Nc2ccc(F)cc2)C1 (configuration not stated)
    -13%, -9%
CC(c1c(O)c2ccccc2[nH]c1=O)C1(C)CCC(O)C(C)(C)O1 (configuration not stated)
    18%, -8%
COc1cc(NC(=O)CCS(=O)(=O)c2ccc3c(c2)n(C)c(=O)c(=O)n3C)cc(OC)c1
    -6%, 5%&-13%
Cc1cc2c(c(-c3ccc(Cl)cc3)c1)OC(CNC(=O)Cc1c(C)noc1C)C2 (configuration not stated)
    -15%, -10%
CC(C)CSc1nc2c(c(=O)[nH]c(=O)n2C)n1CCc1ccccc1
    ., -5%
O=C(NCc1nnc(SCC(=O)N2CCCCCC2)o1)c1ccccc1F
    -14%, -14%
CCc1ccc(NC(=O)CSc2nccn2C2CCCC2)cc1
    -5%, -7%
CCOC(=O)C1=C(COC(=O)c2cccc(Cl)c2)NC(=O)NC1C (configuration not stated)
    -14%, -1%
Cc1cccc(C)c1OCc1cc(C(=O)N(Cc2c(C)nn(C)c2C)C2CC2)no1
    -11%[7.34 µM], -20%[7.34 µM]
CCN(CC)CCCNc1nc(CN2CCOCC2)nc2sc3c(c12)CCC3
    i, -5%
CC/C(=C/c1sc2ccc(C)cc2[n+]1CCCS(=O)(=O)[O-])SC
    -9%, 39%[activator]
O=C(NCCS(=O)(=O)N1CCN(c2ccccc2)CC1)c1ccccc1F
    0%, 7%
Nc1[nH]c(C(=O)c2ccccc2)c(-c2ccc(Cl)cc2)c1C(=O)NCc1ccco1
    -19%, 2%
O=C(OCc1cc(=O)n2ccsc2n1)c1ccccc1O
    i, -10%
COc1ccc([C@H]2C[C@@H](O)[C@H](n3cc(C4CC4)nn3)CN2CC2CCCCC2)cc1
    i, -30%
COc1ccccc1CCCNC(=O)C1CCC(=O)N(CCCN2CCCC2=O)C1 (configuration not stated)
    i, -9%
CC(=O)NS(=O)(=O)c1ccc(NC(=O)c2ccc3c(c2)NC(=O)CS3)cc1
    -10%, 8%
COC(=O)Cc1csc(NCc2ccccc2)n1
    i, -13%
Cc1ccc(Cl)cc1N1CCN(C(=O)c2cccc3c(=O)c(C)c(-c4ccccc4)oc23)CC1
    i, -11%
CCOc1ccc(OCC)c(S(=O)(=O)NCc2ccc3c(c2)OCO3)c1
    3%, 2%

Some of these compounds in order of molar mass, lowest first:
Second line of a record: Vaccinia mCherry, Vaccinia Venus
CCn1cc(CNC(=O)c2ccc(C)s2)cn1
    -12%, -23%
CCN1CCN(Cc2cc(=O)oc3ccc(C)cc23)CC1
    25%, 5%
O=C(OCc1cc(=O)n2ccsc2n1)c1ccccc1O
    i, -10%
CCc1ccc(NC(=O)CSc2nccn2C2CCCC2)cc1
    -5%, -7%
Cc1c(CCC(=O)O)c(=O)oc2cc3occ(-c4ccccc4)c3cc12
    -1%, -4%
FC(F)(F)c1ccccc1NC(=S)N1CCN(c2ncccn2)CC1
    -17%[1.46 µM], ?
CC/C(=C/c1sc2ccc(C)cc2[n+]1CCCS(=O)(=O)[O-])SC
    -9%, 39%[activator]
Cc1cc(C)cc(CC(Cc2nc3ccccc3[nH]2)c2nc3ccccc3[nH]2)c1 (configuration not stated)
    -14%[1.46 µM], 14µM*
CCOC(=O)c1c(NC(=O)c2cc3ccccc3c(=O)o2)sc2c1CCCC2
    6%, 1%
Cc1cccc(S(=O)(=O)N(CC(=O)Nc2ccccc2C)Cc2ccco2)c1
    ., -25%
Cc1cccc(C)c1OCc1cc(C(=O)N(Cc2c(C)nn(C)c2C)C2CC2)no1
    -11%[7.34 µM], -20%[7.34 µM]
COc1ccc([C@H]2C[C@@H](O)[C@H](n3cc(C4CC4)nn3)CN2CC2CCCCC2)cc1
    i, -30%
COc1ccccc1NS(=O)(=O)c1ccc(NN=C2CCCCC2)c([N+](=O)[O-])c1
    -12%, -16%
CCOCCCN(C(=O)Cn1nnc(-c2ccc(C)o2)n1)C(C(=O)NCC1CCCO1)c1ccc(F)cc1 (configuration not stated)
    i, 6%

Later entries.
Second line of a record: Vaccinia mCherry, Vaccinia Venus
CN(C)S(=O)(=O)c1ccc(C(=O)Nc2ccc(S(=O)(=O)NC3=NCCCCC3)cc2)cc1
    -26%, -17%
COc1cccc(OCC(O)CN2CCN(c3ccccc3)CC2)c1 (configuration not stated)
    -8%, -14%
CCCOc1cccc(C(=O)N(Cc2cc(OC)c(OC)c(OC)c2)C2CCS(=O)(=O)C2)c1 (configuration not stated)
    -8%, -6%
NC(=O)c1ccsc1NC(=O)c1coc2ccccc2c1=O
    -9%, -11%
O=C(NCc1ccc(F)cc1)c1cc(C2CCCN(C(=O)c3ccccn3)C2)on1 (configuration not stated)
    0%, 3%
COc1ccc(C)cc1-n1ccn(CC(=O)Nc2ccc(Br)cc2F)c(=O)c1=O
    -15%, 1%
O=C(COC(=O)/C=C/c1ccc(F)cc1)Nc1ccc(S(=O)(=O)N2CCOCC2)cc1
    -22%, -10%
O=C(O)C(Cc1c[nH]c2ccccc12)NS(=O)(=O)c1ccc(Br)cc1 (configuration not stated)
    -11%, 0%
COc1ccc(-c2c(C#N)c(N)nc3sc(C(=O)c4ccccc4)c(N)c23)cc1
    -7%, 2%
COc1ccc([C@H]2CC(=O)C=C(c3cc4ccccc4s3)C2)cc1
    -2%, 9%
O=C(NCc1n[nH]c(=S)n1-c1ccc(F)cc1)c1ccc(S(=O)(=O)N2CCCC2)cc1
    i, -12%
CCc1ccc(OCC(=O)Nc2ncc3c(n2)CC(C)(C)CC3=O)cc1
    -17%, -14%
O=C(NCCCN1CCOCC1)c1cc(-c2ccccc2)nc2ccccc12
    i, -9%
CCCn1cc(S(=O)(=O)c2ccccc2)c(=O)c2cc(OCC)ccc21
    i[7.34 µM], 0%[7.34 µM]
CCOc1ccc(CNC(=O)Cn2c(=O)c3cccn3c3ccc(F)cc32)cc1OC
    -8%, -4%
CC(=O)c1ccc(N2CCN(c3ncnc4c3c(-c3ccccc3)cn4-c3ccc(Cl)cc3)CC2)cc1
    -10%, -10%
CC(NC(=O)c1ccc(NC(=O)c2ccco2)cc1)c1ccccc1 (configuration not stated)
    i, -20%
Cc1ccn2c(Cc3ccccc3)c(-c3ccccc3)nc2c1
    -10%, -8%
Cc1ccc(S(=O)(=O)Nc2ccc(Oc3cccnc3)nc2)cc1
    -1%, -13%
Cc1nc(C(F)(F)F)ccc1C(=O)N1CCC1(C)C(=O)NS(=O)(=O)c1cccc(F)c1 (configuration not stated)
    i, 4%
O=CNc1ccc(/C=C/c2ccnc3ccccc23)cc1
    -8%, -12%
Cc1c(N=Nc2c(O)n(-c3ccc(Br)cc3)c(=O)[nH]c2=O)c(=O)n(-c2ccccc2)n1C
    -12%, -10%
COC(=O)Cc1[nH]n(-c2nc3ccccc3s2)c(=O)c1C(C)=O
    ., -14%
COc1ccc(OC)c(NC2=NCCS2)c1
    -1%, -14%
CCC(CC)NC(=O)/C=C/c1ccccc1Cl
    -10%, -11%
CCC(=O)c1ccc(OCC(O)CN(CCc2ccccc2)Cc2ccccc2)cc1 (configuration not stated)
    ?, ?
CCN(CC)c1ccc(/C=C(\C#N)c2ccccn2)cc1
    i, -10%
CCOc1cc(/C=N/n2cnnc2)ccc1OC(=O)c1cccc([N+](=O)[O-])c1
    -26%, -16%
Cc1ccc(S(=O)(=O)NCCc2nnc(SCc3cccnc3)n2C)cc1
    4%, 2%
CN(C)CCN(C(=O)c1ccc2ccccc2c1)c1nc2cc3c(cc2s1)OCCO3
    ?, -14%
CCOc1ccc(NC(=O)CSc2nc(=O)n(Cc3ccccn3)c3c2CCC3)cc1
    -30%, -20%
O=P(c1ccccc1)(c1ccccc1)c1cc(Br)cc(Br)c1OCCO
    ?, -29%
CN(C)c1ccc(C(=O)N2CCCC(CCC(=O)N3CCN(c4ccccn4)CC3)C2)cc1 (configuration not stated)
    i, -12%
CN(C(=O)CSc1nnc(-c2cccc(F)c2)n1N)C1CCS(=O)(=O)C1 (configuration not stated)
    -1%, 8%
COc1ccc(S(=O)(=O)n2nc(C)c(S(=O)(=O)N3CCCCCC3)c2C)cc1C
    5%, -3%
NC(=O)c1ccccc1NCC(=O)c1ccc(F)cc1
    ?, -9%
O=C(Nc1ccccc1)N1CCN(c2ccc(F)cc2)CC1
    i, -16%
O=C(COc1ccc(Br)cc1)c1ccc2c(c1)CCCC2
    ., -10%
Cc1cccc(NC(=O)CN(CC2CCCO2)C(=O)c2cc(S(=O)(=O)N(C)C)ccc2F)c1C (configuration not stated)
    i, -10%
CN1CCc2nc3sc(C(=O)C45CC6CC(CC(C6)C4)C5)c(N)c3cc2C1
    ., -24%
COc1ccc2cc(-c3ccccc3)ncc2c1
    -12%, -6%
Nc1ncnc2c1ccn2[C@H]1CN(Cc2ccc(Cl)cc2)C[C@@H](CO)O1
    6%, -7%
COc1cc(C)c(CN2CCN(C(C)C(=O)NC(C)c3ccccc3)CC2)cc1OC (configuration not stated)
    -11%, -2%
CC1Cc2cc(S(=O)(=O)N3CCC(C(=O)N4CCN(c5ccccc5F)CC4)CC3)ccc2N1C(=O)C1CC1 (configuration not stated)
    -17%, -13%
Cc1cccc(NC(=O)c2cc(N3CCOCC3)nc3ccccc23)c1
    -13%, -16%
COCc1ccc(C(=O)N(C)CC2CCCN(CCc3ccc(OC)cc3)C2)o1 (configuration not stated)
    -10%, -5%
CC1=CN(S(=O)(=O)c2ccc(C)cc2)C[C@@H]2[C@H]3CC[C@H](C3)[C@H]12
    i, -10%
CC(=O)c1cc2c(cc1NC(=O)c1ccc(Cl)cc1)OCCO2
    -1%, -8%
O=C(COC(=O)c1ccc(O)cc1)Nc1ccc(Cl)cc1
    -4%, -17%
CCOc1ccc(-c2c(C(=O)N/N=C/c3ccc(C)s3)nnn2-c2nonc2N)cc1
    -22%, -14%
Cc1ccc(NC(=O)c2ccc(S(=O)(=O)N3CCOCC3)cc2)c(C)c1
    -8%, -10%
NS(=O)(=O)c1ccc(NC(=O)COC(=O)c2cnc(Cl)c(Cl)c2)cc1
    14%, -13%
Cc1nn(Cc2ccccc2)c2c1C(c1cccc(Cl)c1)C(C#N)=C(N)O2 (configuration not stated)
    ., -10%
O=[N+]([O-])c1ccc2nc(NS(=O)(=O)c3ccc(F)cc3)sc2c1
    20%, 0%
CCCc1cc(CCC)n2nc(N)nc2n1
    i, -14%
CS(=O)(=O)N(CC(=O)NCc1ccccn1)Cc1ccc(Cl)cc1
    ., 5%
O=C(Nc1ccc2c(c1)OCCO2)c1ccc(Cl)cc1Cl
    1%, 3%
O=C(Nc1cc(S(=O)(=O)N2CCOCC2)ccc1O)c1ccc(NS(=O)(=O)c2ccc(Cl)s2)cc1
    -21%, -2%
CC1CN(C(NC(=O)C(C)(C)C)C(Cl)(Cl)Cl)CC(C)O1 (configuration not stated)
    i, -8%
Cc1cccc(C)c1OCCn1c(C2CC(=O)N(c3cccc(Cl)c3)C2)nc2ccccc21 (configuration not stated)
    -20%, -20%
